High-throughput results deposited in PubChem BioAssay by National Center for Advancing Translational Sciences (NCATS).
miR-21 FLuc: raises the signal of a miR-21 reporter | HeLa miR-21 FLuc reporter, luciferase, 48 h | Potency, µM (series often up to 38.3 µM), without a hit: top-dose reporter change, positive = more light | 340,000 tested, under 10 active; active = well fitted rising curve with a large enough effect; inconclusive = small, poorly fitted or top-dose-only effect; inactive = no such curve, though single readings can be large or run the other way;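 further: % of control where 0% means no effect; miR-21 action dims this reporter so a rising signal means less miR-21 action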
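Luminescence from a firefly luciferase reporter carrying a miR-21 binding site downstream, stably expressed under a CMV promoter in HeLa cells that make miR-21 endogenously, reports miRNA modulation after 48 h compound exposure up to approximately 40uM final.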
* = called active by the depositor; ? = inconclusive; [ ] = remark or other dose. Not all compounds are listed, so the mix of outcomes need not match the whole.

miR-21 FLuc	SMILES
3%	Cc1cc(C)c2oc(C(=O)Nc3c(C)n(C)n(-c4ccccc4)c3=O)cc(=O)c2c1
-1%	CCC(=O)N1CCc2cc(S(=O)(=O)NCCC(=O)Nc3ccc(OC)c(OC)c3)ccc21
-3%	COc1ccc(-n2nc(C(=O)NCCc3ccc(Cl)cc3)c3c4ccccc4n(C)c3c2=O)cc1Cl
-3%	Cc1cccc(Cn2c(=O)n(-c3ccccc3C)c(=O)c3c2c2cc(C)ccc2n3C)c1
-13%	COc1ccc(Nc2c(-c3ccc(C)o3)nc3ccc(Cl)cn23)cc1
5%	Cc1ccc(C)c(CN2C(=O)c3ccccc3S(=O)(=O)c3ccc(C(=O)NCCCN4CCCC(C)C4)cc32)c1 (stereo not given)
3%	COc1cc(Cl)c(NS(=O)(=O)c2cc(-c3cc(C)no3)ccc2OC)c(OC)c1
2%	COc1ccccc1CNS(=O)(=O)c1c(C(=O)N2CCC(C)CC2)c(C)n(C)c1C
22%	COc1ccc(CCNC(=O)CSc2nc3nc(C)c(Cc4ccc(C)cc4)c(C)n3n2)cc1OC
-37%	COc1ccc(NC(=O)c2cccc(N3CCCS3(=O)=O)c2)cc1
-4%	Cc1cc(-c2nc3ncccc3o2)ccc1NC(=O)COc1cc(C)c(Cl)c(C)c1
13%	COc1ccc(OC)c(NC(=O)Cn2cnc3ccc(S(=O)(=O)N4CCC(C)CC4)cc3c2=O)c1
15%	COc1ccc(N2CCN(CC(O)COc3ccc(C(C)C)c(C)c3)CC2)cc1 (stereo not given)
-3%	CCOc1ccc(N2CC(C)Cn3c2nc2c3c(=O)n(Cc3c(F)cccc3Cl)c(=O)n2C)cc1 (stereo not given)
-1%	Cc1cccc(CC(=O)NC2CC(=O)N(c3cccc(F)c3)C2)c1 (stereo not given)
14%	Cc1ccc(NC(=O)c2ccc(NC(=O)CCS(=O)(=O)c3cccs3)cc2)cc1F
2%	Cc1ccc(N2CCn3c2nc2c3c(=O)n(CCCc3ccccc3)c(=O)n2C)cc1
-1%	O=C(NCCCN1CCN(c2ccccc2)CC1)c1nnc(Cc2ccc(F)cc2)o1
0%	CC1=C(C(=O)Nc2ccc(Cl)cc2)C(c2cccs2)n2nc(SCc3cccc(Cl)c3)nc2N1 (stereo not given)
21%	CCC(=O)N1CCc2cc(Br)cc(S(=O)(=O)NCCc3ccccc3Cl)c21
20%	Cc1ccc(C)c(S(=O)(=O)Nc2ccc3c(c2)CCCN3C(=O)c2cccs2)c1
-27%	COc1ccc(CNC(=O)c2cc3sccc3n2Cc2ccc(C)cc2)cc1
-5%	O=C(Cn1c(=O)oc2cc(S(=O)(=O)NC3CCCC3)ccc21)Nc1ccc(F)c(F)c1
1%	Cc1ccc(C(=O)c2cn(Cc3c(F)cccc3Cl)c3nc(C)ccc3c2=O)cc1
-3%	Cc1cccc(NC(=O)Cn2cc(S(=O)(=O)N3CCCC3)c(S(=O)(=O)N3CCCC3)c2)c1C
-6%	CCOC(=O)Cn1c(=O)cc(C)c2c(C)nn(-c3cccc(F)c3)c21
1%	O=C(Nc1ccc(-c2cn3cccnc3n2)cc1)c1cc(Br)ccc1Cl
6%	Cc1c2cnn(CC(=O)Nc3ccc(F)cc3F)c(=O)c2c(C)n1Cc1cccc(Cl)c1
4%	CCOc1ccccc1C(=O)N(Cc1ccc(N(C)C)cc1)CC1CCCO1 (stereo not given)
-5%	O=C(NC1CCCCCC1)c1cc2c(Cl)nc3ccccc3c2s1
-26%	COc1ccc(C(=O)N(c2ccc(OC)cc2)S(=O)(=O)c2ccc3c(c2)n(C)c(=O)n3C)cc1
-2%	COc1cccc2c1cc1c(=O)n(CC(=O)N3CCN(c4cc(Cl)ccc4C)CC3)nc(C)n12
11%	COc1ccc(-c2noc(CN(C(=O)Cc3ccc(C)cc3)C(C)C)n2)cc1
-1%	O=C(Cn1c(=O)n(CC2CCCO2)c(=O)c2ccccc21)Nc1ccc(F)cc1F (stereo not given)
-4%	Cc1ccc(NC(=O)Cn2c(=O)n(Cc3ccc(C(=O)NCc4ccc5c(c4)OCO5)cc3)c(=O)c3ccccc32)cc1
-7%	Cc1ccc(CCNS(=O)(=O)c2ccc3c(c2)CC(C)N3C(=O)C2CCC2)cc1 (stereo not given)
?	O=C(CSc1nc(=O)n(CCN2CCOCC2)c2c1CCC2)Nc1ccc(F)cc1F
9%	CC(C)(C)c1ccc(CN(Cc2ccco2)c2cnc(S(C)(=O)=O)nc2C(=O)Nc2ccc(F)cc2)cc1
1%	CC(=O)N1CCCc2cc(S(=O)(=O)N3CCC(C(=O)NCc4ccc(N(C)C)cc4)CC3)ccc21
-2%	CCN1C(=O)c2ccccc2S(=O)c2ccc(C(=O)NCc3ccc(C)cc3)cc21 (stereo not given)
-15%	CCCN(CCC)CCNC(=O)c1nn(C)c2c1CS(=O)(=O)c1ccccc1-2
-4%	COc1ccc(CCNC(=O)c2ccc(Cn3c(=O)c4ccccc4n(Cc4cccc(C)c4)c3=O)cc2)cc1OC
-1%	O=C(NCc1ccccc1Cl)c1ccc2c(c1)N(Cc1ccccc1)C(=O)CS2
-6%	CCOC(=O)c1scc(-c2ccc(C)cc2)c1S(=O)(=O)Nc1ccc(F)c(F)c1
-14%	CC(Oc1ccccc1Cl)C(=O)N1CCN(CCc2ccccn2)CC1 (stereo not given)
-9%	Cc1cccc(C(=O)Nc2cc(-c3ccccc3F)nn2-c2ccccc2)c1
3%	CCOC(=O)C1CCN(S(=O)(=O)c2cc(-c3cc(C)no3)ccc2C)CC1
1%	O=C(Cn1cc(C(=O)c2ccco2)c2ccccc21)Nc1ccc(Br)cc1
-34%	COc1ccc(OC)c(S(=O)(=O)Nc2cccc(-c3ccc(N4CCCCC4)nn3)c2)c1
4%	CCOc1ccc(S(=O)(=O)NCC(c2ccco2)S(=O)(=O)c2cccs2)cc1 (stereo not given)

4 of the compounds above, bar-delimited.
compound | miR-21 FLuc
COc1ccc(OC)c(S(=O)(=O)Nc2cccc(-c3ccc(N4CCCCC4)nn3)c2)c1 | -34%
O=C(Cn1c(=O)n(CC2CCCO2)c(=O)c2ccccc21)Nc1ccc(F)cc1F (stereo not given) | -1%
Cc1cccc(CC(=O)NC2CC(=O)N(c3cccc(F)c3)C2)c1 (stereo not given) | -1%
O=C(NCCCN1CCN(c2ccccc2)CC1)c1nnc(Cc2ccc(F)cc2)o1 | -1%

(listing goes on)
miR-21 FLuc	SMILES
3%	Cc1ccc(C)c(CN2C(=O)c3ccccc3S(=O)(=O)c3ccc(C(=O)N4CCN(c5ccccc5)CC4)cc32)c1
-10%	Fc1ccccc1CNCCCSc1nnnn1-c1ccccc1
-2%	COc1cc(C2CC(=O)Nc3c2c(=O)[nH]c2nc4ccccc4n32)ccc1O (stereo not given)
21%	CCCCCn1c(NCc2ccccc2OC)nc2ccccc21
0%	CCCCNc1ncnc2c1nnn2C
0%	O=C(NC1CCCC1)c1ccc2c(=O)n(Cc3ccccc3)c(SCc3cccc(F)c3)nc2c1
12%	Cc1noc2ncnc(N3CCCC(C(=O)NCCC(C)C)C3)c12 (stereo not given)
0%	Cc1ccc(Cn2c(=O)n(CCCCC(=O)NCc3ccc4c(c3)OCO4)c(=O)c3ccccc32)cc1
29%	Cc1ccc(CN(Cc2ccco2)C(=O)COc2ccc(Cl)cc2Cl)cc1
-6%	CCc1ccc(CNC(=O)c2nn(-c3ccc(OC)c(Cl)c3)c(=O)c3c2c2ccccc2n3C)cc1
19%	COc1ccc(-n2nc3c(N4CCCC(C(=O)NCc5ccc(C)cc5)C4)nnc(C)c3c2C)cc1 (stereo not given)
0%	CCN(CC)C(=O)c1sc2c(c1C)c(=O)n(CCc1ccccc1)c(=O)n2Cc1cc(C)ccc1C
-5%	COc1ccc(-c2noc(CC(=O)N(C)c3cccc(C)c3)n2)cc1
-3%	COc1ccc(-c2nc(CN3CCC(C(=O)NCCc4ccccc4)CC3)c(C)o2)cc1OC
3%	O=C(Cn1ncc2c1-c1ccccc1OC2)N1CCN(c2ccccc2)CC1
1%	O=C(CSc1nc2ccsc2c(=O)n1-c1ccc(Cl)cc1)NCc1ccc(Cl)cc1
5%	COc1ccc(-n2cc(-c3ccccc3)c3c(NCc4cccc(Cl)c4)ncnc32)cc1
14%	CCCCCNC(=O)c1cc2c(=O)n3ccccc3nc2n1C
-10%	CCN(CC)C(=O)CSc1nc(-c2ccccc2)cc(-c2ccc(OC)cc2)c1C#N
3%	COc1ccc(N2CCN(C(=O)CCc3nnc4n(C)c(=O)c5sccc5n34)CC2)cc1
3%	CCc1sc(Nc2cccc(Cl)c2C)nc1-c1cc2cccc(OC)c2oc1=O
6%	CCOc1ccc(/C=C/c2nc(C#N)c(N3CCN(c4ccccc4)CC3)o2)cc1
4%	COc1ccc(S(=O)(=O)N2CCN(c3ccccc3F)CC2)cc1-c1noc(C)n1
2%	O=c1n(Cc2ccc([N+](=O)[O-])cc2)c2ccccc2c2nc(-c3ccccc3)nn12
-12%	COc1ccc(-c2cn3cccnc3n2)cc1NC(=O)C(C)C
-3%	Cc1ccc(NC(=O)Cn2cc(S(=O)(=O)N3CCCC3)c(S(=O)(=O)N3CCCC3)c2)c(C)c1
0%	C=Cc1ccc(Cn2c(C)c(CNCc3ccccc3C)c(C(=O)O)c2C)cc1
-7%	COc1cccc(CNC(=O)C(=O)Nc2ccc3nc4n(c(=O)c3c2)CCCCC4)c1
-11%	CCCc1cc(=O)[nH]c(Nc2ccc(C)c(O)c2)n1
-2%	CCOC(=O)c1c(NC(=O)c2ccc(S(=O)(=O)N(C)C)cc2)sc2c1CCN(C)C2

Some of the entries so far, comma-delimited:
canonical_smiles,miR-21 FLuc
O=C(Cn1cc(C(=O)c2ccco2)c2ccccc21)Nc1ccc(Br)cc1,1%
COc1ccc(OC)c(S(=O)(=O)Nc2cccc(-c3ccc(N4CCCCC4)nn3)c2)c1,-34%
CCOc1ccc(S(=O)(=O)NCC(c2ccco2)S(=O)(=O)c2cccs2)cc1 (stereo not given),4%

The list goes on.
miR-21 FLuc	SMILES
-5%	COc1ccc(C(=O)CCS(=O)(=O)c2ccc(F)cc2)cc1OC
-18%	COc1ccccc1CNc1nccn(-c2ccccc2)c1=O
-4%	COc1cccc(C(=O)n2nc(-c3cccnc3)nc2NCc2ccc(F)cc2)c1
-9%	CCCSc1ncc(Cl)c(C(=O)N(Cc2ccc(N(C)C)cc2)C2CCS(=O)(=O)C2)n1 (stereo not given)
4%	COc1ccc(-c2csc3ncnc(Nc4cccc(F)c4)c23)cc1
-30%	COc1ccccc1C(=O)Nc1nc2n(n1)C(c1ccc(F)cc1)C=C(c1ccc(Cl)cc1)N2 (stereo not given)
-3%	Cc1ccc(CNC(C)c2ccccc2)s1 (stereo not given)
1%	Cc1ccc(CN(C(=O)COc2ccc(F)cc2)C2CCS(=O)(=O)C2)o1 (stereo not given)
-4%	CS(=O)(=O)N(Cc1ccccc1)c1ccc(C(=O)Nc2ccc(Cl)cc2)cc1
?	COc1ccc(NC(=O)c2ccco2)cc1NC(=O)C(C)Oc1ccc(Cl)cc1Cl (stereo not given)
1%	CCOC(=O)c1c(NC(=O)COc2ccc(Br)cc2)sc2c1CCCC2
-1%	COc1ccc(NC(=O)CSc2nc3nc(C)c(Cc4ccc(C)cc4)c(C)n3n2)cc1OC
-11%	CCc1ccc(C(=O)c2cn(CC(=O)Nc3ccc4c(c3)OCO4)c3ccc(OC)cc3c2=O)cc1
?	CCC1CN(C(=O)N2CCC(C(=O)NCCc3ccc(OC)cc3OC)CC2)c2cc(C)ccc2O1 (stereo not given)
0%	Cc1cc(C)c2c(n1)sc1c(=O)n(-c3ccccc3C(F)(F)F)nnc12
5%	Cc1c(-c2nsc(NC(=O)c3cccc(Cl)c3)n2)nnn1-c1ccccc1C(F)(F)F
-4%	O=C(Nc1cnc(N2CCN(c3ccccc3)CC2)c(C(=O)O)c1)c1cccs1
-48%	Cc1cc(Cl)ccc1NC(=O)C(=O)NCc1ccco1
1%	Cc1c(C(=O)Nc2ccccc2Br)oc2ccc(S(=O)(=O)N3CCCCC3)cc12
0%	Cc1cccc(C(=O)NC(=O)Nc2ccc(-n3nc(C(F)(F)F)cc3C(F)(F)F)cc2)c1
5%	Cc1ccc(-c2noc(-c3ccc(NCc4cccnc4)c([N+](=O)[O-])c3)n2)cc1
?	O=C(NCCc1ccccc1)C(=O)NCC(c1cccnc1)N1CCN(c2ccc(F)cc2)CC1 (stereo not given)
3%	Cc1ccc2nc(CSc3nnc(NC(=O)COc4ccccc4F)s3)cc(=O)n2c1
10%	COc1ccc(Cl)cc1NC(=O)c1cc(C)nn1-c1ccccc1
0%[7.66 µM]	CCCC[C@]12Cc3cc(C#N)ccc3C(O1)c1c(cc(-c3ccccc3)oc1=O)O2
-12%	CCOc1ccc(CN2C(=O)c3ccccc3Sc3ccc(C(=O)NCc4ccc5c(c4)OCO5)cc32)cc1
-9%	COc1ccccc1-c1noc(-c2ccc(NC3CCCC3)c([N+](=O)[O-])c2)n1
5%	COc1cc(Br)c(C2CC(=O)Nc3cc(OC)c(OC)c(OC)c32)cc1OC (stereo not given)
1%	O=C(Nc1ccccc1Cl)C1CCN(c2nc3ccccc3[nH]2)CC1
-2%	CCOC(=O)Cc1ccc(NC(=O)N2CCSc3ccccc32)cc1
0%	Cc1ccc(Cl)cc1N1CCN(C(=O)C2CCN(S(=O)(=O)c3cn(C)cn3)CC2)CC1

Not a retest: an excerpt of the list.
miR-21 FLuc	SMILES
-2%	CCOC(=O)Cc1ccc(NC(=O)N2CCSc3ccccc32)cc1
0%	Cc1ccc(Cl)cc1N1CCN(C(=O)C2CCN(S(=O)(=O)c3cn(C)cn3)CC2)CC1

Random excerpt: 2 entries already listed.
miR-21 FLuc	SMILES
-10%	Fc1ccccc1CNCCCSc1nnnn1-c1ccccc1
0%	O=C(NC1CCCC1)c1ccc2c(=O)n(Cc3ccccc3)c(SCc3cccc(F)c3)nc2c1
